Screening data deposited in PubChem by National Center for Advancing Translational Sciences (NCATS).
ClpP mod: qHTS Assay for Activators of ClpP; Potency, µM (highest dose often 57.5 µM), inactives show top-dose activity change, negative = active; purified B. subtilis ClpP, FRET peptide cleavage, 20 min; 340,000 tested, 1.9% active; active = well fitted falling curve with a large enough effect; inconclusive = small, poorly fitted or top-dose-only effect; inactive = no such curve, though single readings can be large or run the other way; further: potency means the concentration at half of the fitted maximal effect; the source files actives as falling curves though it sought activators and does not explain the sign; nearly all actives have a fitted effect of over 65% in size; many hits overshoot -100%
Target sequence (P80244 whole entry, looked up): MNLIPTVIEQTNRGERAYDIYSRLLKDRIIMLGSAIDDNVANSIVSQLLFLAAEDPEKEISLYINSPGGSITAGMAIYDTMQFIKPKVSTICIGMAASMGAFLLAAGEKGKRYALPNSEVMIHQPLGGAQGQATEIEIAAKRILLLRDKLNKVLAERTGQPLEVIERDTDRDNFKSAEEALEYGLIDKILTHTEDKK
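Buffer: 100 mM Tris/HCl pH8, 100 mM KCl, 0.05% low protease BSA, 2.5% glycerol, 0.01% Tween-20. ClpP 10 microg/mL final; 20 min RT; delta FRET normalized to ADEP and DMSO controls.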
TRPV1 PAM: HTS Assay for Compounds that Act as Potentiators of the Vanilloid Receptor 1; TRPV1-expressing cells, Fluo-8 calcium influx, capsaicin EC20 potentiation; host cell line not named in the record; control for the full effect not named in the record; potentiation, % at 8.33 µM; 320,000 tested, 0.02% active; AID 540277, 2011; active means potentiation above 80%; inconclusive means 30% to 80%; inactive means below 30%; further: 0% is about no effect
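Fluo-8 calcium influx in TRPV1-expressing cells, kinetic read (ex 480/em 520 nm). Compound added and read 3 min for agonist activity, followed by capsaicin at EC20 final and 2 min further read for enhancement.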
Menin-MLL FL inh: qHTS Assay for Inhibitors Targeting the Menin-MLL Interaction in MLL Related Leukemias: Competition With Fluorescein Labeled MLL-derived Peptide; Fluorescence polarization, fluorescein-MLL peptide displacement from menin; FP activity change, % at 61.4 µM; 290,000 tested, under 10 active; AID 1766, 2009; inconclusive = falling polarisation curve, or a change in total fluorescence; inactive = total fluorescence flat and polarisation flat or rising; no compound was filed as active; the % refers to the polarisation; negative = inhibition;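 further: % of control where 0% means no effect; inhibitors lower the polarisation; unlabelled MLL peptide was the positive control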
TRPML1 blocker: qHTS for Inhibitors of the Human Mucolipin Transient Receptor Potential 1 (TRPML1) | Mucolipin-1 (Homo sapiens), Q9GZU1 | TRPML1-inducible cells, Ca2+ dye fluorescence, FDSS; hits give low values; inhibition of EC80 agonist-evoked calcium signal | activity change, negative = inhibition, % (no concentration beside the values) | 390,000 tested, 0.02% active; in the data active means activity change below about -50%; inconclusive means about -30% to -50%; inactive means above about -30%;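 further: stimulus is agonist 54-4 at its EC80 concentration; on the % scale 0 is the no-effect control and ±100 the full control effect; compound concentration not given in the record; the text of the record puts the active cut at -80%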
Target sequence (Q9GZU1 whole entry, looked up): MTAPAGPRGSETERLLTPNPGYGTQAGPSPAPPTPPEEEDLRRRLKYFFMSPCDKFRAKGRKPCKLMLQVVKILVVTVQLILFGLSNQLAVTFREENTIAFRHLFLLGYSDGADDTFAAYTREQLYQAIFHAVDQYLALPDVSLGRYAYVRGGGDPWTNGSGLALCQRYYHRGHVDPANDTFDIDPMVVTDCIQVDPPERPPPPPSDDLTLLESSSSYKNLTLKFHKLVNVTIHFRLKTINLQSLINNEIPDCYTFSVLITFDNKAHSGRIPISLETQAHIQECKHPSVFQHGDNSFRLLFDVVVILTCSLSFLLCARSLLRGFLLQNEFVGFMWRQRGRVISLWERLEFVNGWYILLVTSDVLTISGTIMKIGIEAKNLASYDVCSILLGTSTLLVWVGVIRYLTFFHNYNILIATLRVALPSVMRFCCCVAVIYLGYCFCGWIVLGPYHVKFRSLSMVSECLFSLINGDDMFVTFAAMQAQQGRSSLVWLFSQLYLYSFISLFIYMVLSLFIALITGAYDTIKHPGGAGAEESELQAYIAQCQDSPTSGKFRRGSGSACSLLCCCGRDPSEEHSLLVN
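TRPML1-DL cells, Tet-induced overnight (~16 h, 37 °C) at 1,500 cells/well, were loaded with Ca8 no-wash dye plus quencher for 45-90 min at room temperature. Compounds were pinned during FDSS kinetic reading; agonist 54-4 at EC80 (4 uM final) then added.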
gsp agonist: qHTS for Agonist of gsp, the Etiologic Mutation Responsible for Fibrous Dysplasia/McCune-Albright Syndrome: qHTS; gsp mutant cells, cAMP HTRF, 30 min; control for the full effect not named in the record; Potency, µM (titrated, usually from 76.9 µM), without a hit: at the highest dose activation (cAMP increase), usual class: activators; 340,000 tested, 0.13% active; AID 624287, 2012; active = well fitted activation curve with a large enough effect; inconclusive = small, poorly fitted or top-dose-only effect, or another doubt; inactive = no such curve, though single readings can be large or run the other way; cell line not stated here;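 further: phosphodiesterase inhibitor Ro 20-1724 added with compounds to block cAMP breakdown; potency means the concentration at half of the fitted maximal effect; nearly all actives have a fitted effect of over 60% in size; about a fifth of the inactives were tested at one dose only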
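Cells stably selected in G418 were plated at 2000/well, grown 16-24 hr, then given compounds in DMSO with the PDE inhibitor […] (300 uM solution added) for 30 min at 37C; cAMP was read by HTRF.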
gsp antagonist: qHTS for Antagonists of gsp, the Etiologic Mutation Responsible for Fibrous Dysplasia/McCune-Albright Syndrome: qHTS. gsp-mutant cells, cAMP HTRF, 30 min; control for the full effect not named in the record. Potency, µM (series often up to 76.9 µM), without a hit: top-dose activity change, negative = inhibition, most hits filed as inhibitors. 340,000 tested, 0.4% active. AID 624288, 2012; active = falling curve of any shape with a large fitted effect; inconclusive = falling curve, mostly with a smaller effect; inactive = flat or rising curve; cell line not stated here;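 further: intracellular cAMP measured with PDE inhibitor Ro 20-1724 present during compound exposure; potency means the concentration at half of the fitted maximal effect; on the % scale 0 is the no-effect control and ±100 the full control effect; nearly all actives have a fitted effect of over 65% in size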
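HTRF cAMP measurement after 30 min RT detection following 30 min, 37C compound treatment alongside […] (added as 300 uM solution) in G418-selected cells seeded at 2000/well and grown 16–24 h.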
Sfp PPTase inh: qHTS Assay for Inhibitors of Bacillus subtilis Sfp phosphopantetheinyl transferase (PPTase); 4'-phosphopantetheinyl transferase ffp (Bacillus subtilis), Q9F4F7; Biochemical Sfp PPTase activity, qHTS; Potency, µM, for the others: max response, negative = inhibition, actives largely listed as inhibitors; 310,000 tested, 3.5% active; AID 1490, 2009; active means well fitted inhibition curve with a large enough effect; inconclusive means small, poorly fitted or top-dose-only effect, or another doubt; inactive means no such curve, though single readings can be large or run the other way;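 further: the enzyme is Sfp with the accession as filed and its product quenches rhodamine fluorescence; potency means the concentration at half of the fitted maximal effect; 0% = enzyme reaction without inhibitor and -100% = no enzyme wells; top concentration of the series not given in the record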
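With Hepes-Na pH 7.6 buffer containing 10 mM MgCl2, Sfp (15 nM) modified BHQ-2-YbbR (12.5 uM) using rhodamine-CoA (5 uM). Two reads 30 minutes apart at 525/598 nm yielded each well's rate.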
An asterisk follows results filed as active; ? = inconclusive; nt = no result given; [ ] = dose if it differs, or a comment.

SMILES	ClpP mod	TRPV1 PAM	Menin-MLL FL inh	TRPML1 blocker	gsp agonist	gsp antagonist	Sfp PPTase inh
COc1ccc(NC(=O)CN(C)C(=O)CCNS(=O)(=O)c2ccc(Br)cc2)cc1	1.1%	-6	nt	8	-1%[15.4 µM]	8%	15%
CC(/C=N/NC(=O)c1cc(C(C)C)[nH]n1)=C\c1ccccc1	-5.9%	1	2.4	21	-15%	?	20%
CCN1CCN(CC(=O)Nc2c(OC)cccc2OC)CC1	22µM*	12	-3.8	7	5%[15.4 µM]	3%	79µM*
COCCNC(=O)C(=O)NNS(=O)(=O)c1ccc2ccccc2c1	nt	7	-0.3	5	1%[15.4 µM]	-7%	-6%
Cc1ccc(Cl)cc1NS(=O)(=O)Cc1ccccc1	1.2%	-11	-1.0	19	-15%[15.4 µM]	-4%	-3%
COc1cnc(-c2ccccn2)nc1Sc1ccc(Cl)cc1	-1.2%	15	0.0	-7	20%	-4%	-2%
Cc1cc(C)nc(/N=C(/NC(=O)c2ccccc2)Nc2ccccc2)n1	-0.7%	-9	1.8	3	6%	1%	11%
O=C(COC(=O)c1cc([N+](=O)[O-])ccc1NCCO)c1ccccc1	-29%	-8	2.5	-2	3%	-5%	-18%
CCCn1c(=N)n(CC(O)COc2ccc(C)cc2)c2ccccc21 (stereo not drawn)	nt	-6	2.2	3	0%[15.4 µM]	5%	13%
COc1cc(OC)c(C(=O)Nc2cccnc2)cc1OC	0.5%	-6	-0.2	-1	2%[15.4 µM]	0%	14%
COc1ccc(-c2c(C3C4C=CCC(C)C4C(=O)N3Cc3ccccc3)ccc3ccccc23)cc1 (stereo not drawn)	nt	nt	-1.2	-10	nt	nt	-2%
COc1cc(OC)cc(C(=O)NCC(=O)Nc2ccc(C)c(Cl)c2)c1	nt	6	-2.8	-5	17%	-13%	3%
COc1ccc(/C(N)=N/OC(=O)c2ccc(C)c([N+](=O)[O-])c2)cc1	-1.5%	3	-0.1	-6	-13%	1%	11%
O=C(O)CCC(=O)N1N=C(c2ccccc2)CC1c1cccs1 (stereo not drawn)	nt	11	2.8	-3	9%[15.4 µM]	-14%	-8%
Brc1cccc(-c2nc(-c3ccncc3)no2)c1	-6.7%	24	-0.5	0	-18%	0%	-17%
COc1ccc(S(=O)(=O)N(CC(=O)N2CCN(c3ccccc3OC)CC2)c2ccccc2)cc1	1.3%	0	0.0	-4	1%	?	-4%
CCOC(=O)C1CCN(C(=O)CN2C(=O)c3ccccc3S2(=O)=O)CC1	nt	1	nt	-5	3%[15.4 µM]	7%	nt
Cc1cc(=O)oc2cc(OCC(=O)OCC(=O)Nc3ccc(C(C)C)cc3)ccc12	nt	?	5.9	0	?	-5%	-4%
O=C(c1cc2ccc([N+](=O)[O-])cc2oc1=O)N1CCOCC1	nt	-3	-0.2	-4	-21%	4%	12%
CCOC(=O)C1=CN(Cc2ccco2)S(=O)(=O)NC1c1ccc(Br)cc1F (stereo not drawn)	-4.4%	nt	nt	-6	nt	-3%	nt
CN(C(=O)c1ccc(NC(=O)Cc2ccc(NC(=O)C3CCN(C(=O)c4ccccc4)CC3)cc2)cc1)C1CCCC1	0.4%	nt	nt	13	nt	4%	nt
O=C(CN1C(=O)c2ccccc2C1=O)N1CCN=C1c1ccccc1	-0.4%	1	?	23	4%[15.4 µM]	-11%	16%
CN1C(=O)C2(C(C#N)=C(N)N(c3cc(Cl)cc(Cl)c3)C3=C2C(=O)CC(C)(C)C3)c2ccccc21 (stereo not drawn)	-25%	-22	2.3	28	-23%	-11%	0%
CCS(=O)(=O)NCCc1csc(-c2cccnc2)n1	-17%	-23	-0.6	-3	1%	11%	2%
O=C(c1cc(COc2cccc(C(F)(F)F)c2)on1)N1C[C@@H]2CCC[C@H]1C2	-1.3%	-4	nt	46	8%	-11%	-9%
SMILES	ClpP mod	TRPV1 PAM	Menin-MLL FL inh	TRPML1 blocker	gsp agonist	gsp antagonist	Sfp PPTase inh
CCN(C(=O)Cn1c(=O)oc2ccccc21)c1c(N)n(Cc2ccccc2)c(=O)[nH]c1=O	-0.9%	-4	nt	30	28%	6%	nt
O=C(NC(=S)Nc1ccc(F)cc1)C1CCCCC1	1.0%	-26	nt	9	-5%	2%	4%
CCOC(=O)C1CCN(Cc2ccc(O)c(OC)c2)CC1	0.2%	?	1.3	28	23%	4%	-4%
Cc1ccc(C(C(=O)NCC2CCCO2)N(C(=O)c2snc(C(N)=O)c2N)c2ccccc2F)o1 (stereo not drawn)	0.1%	-5	-0.1	41	-12%[15.4 µM]	-32%	9%
CC(C)CN1C(=O)NC(NC(=O)c2cccnc2)(C(F)(F)F)C1=O (stereo not drawn)	0.4%	0	9.5	6	-40%[inhibitor]	3%	11%
Cc1ccc(-c2cc(C(=O)N/N=C/c3c[nH]c4ccccc34)n[nH]2)o1	-11%	-4	-0.9	-10	9%	?	-18%
Cc1c(NC(=O)c2cccc(NC(=O)COc3ccccc3)c2)c(=O)n(-c2ccccc2)n1C	-2.6%	-7	nt	15	-8%	-18%	nt
CCOC(=O)CSc1nc2ccccc2c(=O)n1CC1CCCO1 (stereo not drawn)	4.0%	-3	-1.6	4	1%	-1%	16%
CCOC(=O)Cc1nnc(NCc2ccccc2)c2ccccc12	-0.8%	23	-0.3	4	-9%	-11%	7%
O=C1Nc2ccccc2N(O)N1c1ccc(S(=O)(=O)N2CCOCC2)cc1	-1.5%	8	7.3	36	21%	-13%	18%
C=CCn1c(SCc2c(C(=O)OC)sc(N)c2C(=O)OC)nnc1-c1ccc(Cl)cc1	-0.7%	-8	0.2	2	-7%	-33%	-4%
c1ccc2oc(-c3ccc(Nc4nc(N5CCCC5)nc(N5CCOCC5)n4)cc3)nc2c1	nt	5	-2.3	nt	nt	nt	-1%
Cc1ccc(CSCC(=O)N(CCC(C)C)c2c(N)n(Cc3ccccc3)c(=O)[nH]c2=O)cc1	nt	0	nt	-1	-2%[15.4 µM]	2%	nt
CCN(CC)S(=O)(=O)c1ccc(F)cc1	2.4%	1	-0.3	4	-40%[inhibitor]	9%	7%
O=C(NNC(=O)c1cc(-c2cccnc2)nc2ccccc12)Nc1ccc(Cl)cc1	-0.6%	-5	0.7	15	-10%[15.4 µM]	-6%	-6%
OCCN(Cc1ccccc1)Cc1ccc(Cl)cc1Cl	1.1%	-10	0.4	2	6%	-4%	-20%
CC1=C(C(=O)Nc2cccc(C(=O)NCC(C)c3ccccc3)c2)SCCO1 (stereo not drawn)	0.1%	nt	nt	32	10%	nt	nt
CC(Oc1ccc(Cl)cc1)c1ccnn1S(=O)(=O)c1ccccc1 (stereo not drawn)	1.9%	-12	4.1	-3	-25%	-13%	1%
O=C(CN1CCOCC1)N1CCOCC1	nt	nt	nt	9	1%	6%	nt
CSc1ccccc1C(=O)Nc1nc2ccccc2[nH]1	-27%	-10	-0.7	0	-4%[15.4 µM]	1%	24%
CCC(=O)c1ccc(OCC(=O)O)c(OC)c1	-5.5%	-3	-8.1	0	-40%	7%	14%
CCCCOc1c(Br)cc(/C=N/O)cc1OCC	0.7%	0	1.5	7	-23%	-6%	17%
CCCOc1ccc(C(=O)NNC(=O)CCNC(=O)c2ccccc2Cl)cc1OC	-0.8%	-1	nt	-1	-21%	5%	nt
CCC(C)[C@H](NC(=O)NCCC1=CCCCC1)C(=O)OC (stereo partly drawn)	nt	-11	0.3	33	?	10%	3%
COC(=O)CNC(=O)C12CC3CC(C1)CC(c1ccc(C)cc1)(C3)C2	0.4%	-14	0.4	26	-22%	-5%	8%
SMILES	ClpP mod	TRPV1 PAM	Menin-MLL FL inh	TRPML1 blocker	gsp agonist	gsp antagonist	Sfp PPTase inh
CNC(=O)c1sc(-c2ccccc2)nc1C	0.8%	1	1.5	0	28%	7%	18%
COC(=O)c1sccc1NC(=O)C1CCCCC1C(=O)O (stereo not drawn)	-6.2%	9	0.0	-6	?	-2%	15%
NS(=O)(=O)c1ccc(NC(=O)c2ccc(S(=O)(=O)N3CCOCC3)o2)cc1	0.8%	-5	-4.6	5	-22%	7%	19%
CCOC(=O)C1=C(CN2CCN(C(=O)c3ccco3)CC2)NC(=O)NC1c1ccc(OC(C)C)cc1 (stereo not drawn)	-0.2%	-9	nt	16	?	-9%	-6%
O=[N+]([O-])c1ncccc1Oc1nc(-c2cccnc2)nc2ccccc12	nt	23	6.0	10	-6%[15.4 µM]	nt	-14%
COc1ccc(N2C(=O)NC(NC(=O)C(C)(C)C)(C(F)(F)F)C2=O)cc1 (stereo not drawn)	-0.1%	-3	1.5	nt	-14%	9%	4%
CCOc1cccc(NC(=O)C(Cc2cccs2)c2nn[nH]n2)c1 (stereo not drawn)	0.7%	6	1.0	-20	-47%[inhibitor]	13%	?
Cc1noc(NS(=O)(=O)c2ccc(NC(=O)c3nn(-c4ccc(F)cc4)ccc3=O)cc2)c1C	0.9%	4	nt	-4	?	-15%	19%
Cc1oc2c(c(C)cc3oc(=O)c(CC(=O)NCC(=O)NCC(=O)NCC(C)O)c(C)c32)c1C (stereo not drawn)	-11%	-8	-1.3	17	?	7%	9%
COc1ccc(C(CNC(=O)c2ccc3c(c2)OCCO3)N(C)C)cc1 (stereo not drawn)	nt	30	-0.4	2	14%[15.4 µM]	-3%	9%
Cc1cccc(-n2ncc3c2CCCC3NC(=O)CCc2cccnc2)c1C (stereo not drawn)	-2.7%	-3	0.1	34	5%	-5%	7%
COc1cc(/C=C/C(=O)OCC(=O)N2CCCc3ccccc32)ccc1OC(F)F	nt	9	nt	-2	-14%[15.4 µM]	2%	nt
CSCC[C@@H](C(=O)NCCCCCCCCCCC(=O)N1CCN(C(=O)OC(C)(C)C)CC1)n1cc(CCO)nn1	-0.6%	-12	nt	30	-23%	32µM*	nt
